# Compound activity as filed in PubChem BioAssay.
# VDR inhibitor = inhibitors of human vitamin D receptor; P11473; VDR-SRC2-3 peptide fluorescence polarization, 2 h; Potency, µM, inactives show max response, negative = inhibition, hits mostly inhibitors; actives 0.93% (n = 400,000); active means well fitted inhibition curve with a large enough effect; inconclusive means small, poorly fitted or top-dose-only effect, or another doubt; inactive means no such curve, though single readings can be large or run the other way; further: series mostly up to about 120 µM
# Target sequence (P11473 whole entry, looked up): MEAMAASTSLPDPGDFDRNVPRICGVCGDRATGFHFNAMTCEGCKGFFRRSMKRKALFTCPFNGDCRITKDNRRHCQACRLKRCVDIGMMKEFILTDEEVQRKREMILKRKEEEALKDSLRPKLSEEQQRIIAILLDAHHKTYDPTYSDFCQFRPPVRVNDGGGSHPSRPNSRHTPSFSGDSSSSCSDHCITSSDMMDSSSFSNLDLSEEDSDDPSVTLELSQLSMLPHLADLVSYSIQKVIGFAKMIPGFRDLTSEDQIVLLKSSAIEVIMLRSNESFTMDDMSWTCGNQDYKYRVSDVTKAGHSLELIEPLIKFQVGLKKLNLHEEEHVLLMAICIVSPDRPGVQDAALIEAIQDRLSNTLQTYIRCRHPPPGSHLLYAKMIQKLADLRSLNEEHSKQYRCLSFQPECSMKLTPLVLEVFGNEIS
#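 Inhibition of the VDR/SRC2-3 peptide interaction is quantified by fluorescence polarization. Compounds (23 nl, pintool) incubate with the reagents for 2 hours at ambient room temperature.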
# * = called active by the depositor; ? = inconclusive; & = joins results of further samples. On the % scale 0 is the no-effect control and ±100 the full control effect; potency means the concentration at half of the fitted maximal effect.
# The first four records, to show the layout:
VDR inhibitor	molecule
-2%	COc1cccc(NC(=O)CSc2nnc3cc(C)nc(N)n23)c1
7%	C#CCOCCOCCOCCNc1nc(N2CCN(C(=O)[C@H](CCC(=O)O)n3cc([C@@H](N)CCCCN)nn3)CC2)nc(N2CCN(C(=O)[C@H](CCCCN)n3cc([C@@H](N)CC(N)=O)nn3)CC2)n1
?	CC(C)Oc1ccc(Cc2n[nH]c(=S)n2Cc2ccccc2)cc1Cl
14%	COc1cccc(N2CC(NC(=O)CCCc3ccccc3)CC2=O)c1 (stereo not drawn)

# Results (from the top)
VDR inhibitor	molecule
-2%	COc1cccc(NC(=O)CSc2nnc3cc(C)nc(N)n23)c1
7%	C#CCOCCOCCOCCNc1nc(N2CCN(C(=O)[C@H](CCC(=O)O)n3cc([C@@H](N)CCCCN)nn3)CC2)nc(N2CCN(C(=O)[C@H](CCCCN)n3cc([C@@H](N)CC(N)=O)nn3)CC2)n1
?	CC(C)Oc1ccc(Cc2n[nH]c(=S)n2Cc2ccccc2)cc1Cl
14%	COc1cccc(N2CC(NC(=O)CCCc3ccccc3)CC2=O)c1 (stereo not drawn)
-22%	CC(NC(=O)CCC(=O)N1CCN(S(=O)(=O)c2ccc(Cl)cc2)CC1)c1ccccc1 (stereo not drawn)
-8%	C=CCNC(=S)NC(=O)c1ccc(C)c(Br)c1
4%	O=c1[nH]cnc2c1ncn2C1CC(O)C(CO)O1 (stereo not drawn)
5%	CCc1ccccc1N(C1=NCCCS1)S(=O)(=O)c1ccc(C(C)(C)C)cc1
-12%	O=C(C1CCC(=O)N(C2CC2)C1)N1CCC(Oc2ccccc2F)CC1 (stereo not drawn)
7%	O=C(Cn1cnc2ccccc21)OCC(=O)N1CCCc2ccccc21
-13%	CCc1ccc(NC(=O)NCc2ccc3c(c2)OCO3)cc1
-16%	CCc1ccc(CNC(=O)C2CCCN(c3nn4c(=O)cc(C)nc4s3)C2)cc1 (stereo not drawn)
8%	COC(=O)C1=C(CN2CCSCC2)NC(=O)NC1c1cc(C)ccc1C (stereo not drawn)
-26%	C=CCn1c(=O)c(CCC(=O)Nc2ccc(N3CCOCC3)cc2)nc2cc(C(F)(F)F)ccc21
-14%	CCc1ccc(C2CC(=O)c3c([nH]c(C(=O)OC4CCCC4)c3C)C2)cc1 (stereo not drawn)
-21%	CC1=[N+](CC(=O)NC(C)(C)C)CCc2ccccc21
3%	Cc1cccc(C)c1NC(=O)CN1CCCCCC1
-14%&-20%&1%	OCC1OC(n2cnc3c(=S)nc[nH]c32)C(O)C1O (stereo not drawn)
1%	NC(=O)COc1ccc(=O)n(-c2ccccc2)n1
8%	CCCCN(CCCC)S(=O)(=O)c1ccc2[nH]c(=O)[nH]c2c1
-3%	COc1ccc(C(=O)NCC(=O)N=Nc2c(O)n(C)c3ccccc23)cc1OC
5%&-9%&5%	O=C1CCC(c2ccccc2)(C2CCN(Cc3ccccc3)CC2)C(=O)N1 (stereo not drawn)
6%	COC(=O)C1C(=O)C2=C(CC1C)NC(C)=C(C(=O)OCCOc1ccccc1)C2c1ccc(C)o1 (stereo not drawn)
15%	O=C(c1cccc(F)c1)N1CCC2(CC1)CCN(c1ccncc1)CC2
-3%	Cc1ccc(S(=O)(=O)Nc2ccc3[nH]c(=O)[nH]c3c2)c(C)c1
-12%	COc1ccccc1N(CCC#N)C(=O)CSc1nnc2ccccn12
-19%	Cc1cc2ccccc2n1CCNC(=O)C1CC1
-4%	O=S(=O)(NCc1ccccc1Cl)c1cnc[nH]1
?	CCOc1cc(C(c2c(C)[nH][nH]c2=O)c2c(C)[nH][nH]c2=O)ccc1OCc1ccc([N+](=O)[O-])cc1
0%	O=C(O)C(Cc1ccccc1)n1cccc1 (stereo not drawn)
-6%	O=C(NC1CCCCC1)C1CCN(S(=O)(=O)c2cccc3nsnc23)CC1
20µM*	Cc1onc(-c2ccccc2)c1C(=O)Nc1nnc(COc2ccc(Cl)cc2)s1
5%	O=C(c1cc(-c2cccs2)on1)N1CCOCC1
-20%	Cc1cc(C(F)(F)F)c2c(=O)[nH]c(=O)n(Cc3ccccc3)c2n1
2%	CCOC(=O)Nc1nnc(-c2ccc(OC)c(OC)c2)s1
-7%	CC(C)(C)c1ccc(C(=O)NC(=S)Nn2cnnc2)cc1
-3%	Cc1ccc2nc(C)cc(C(=O)NC3CCCCCC3)c2c1
11%	COC(=O)[C@]1(Cc2ccccc2)N[C@H](c2ccc(-c3cc(C(C)=O)cs3)cc2)[C@@H]2C(=O)N(C)C(=O)[C@@H]21
2%	O=C(NCCCN1CCCC1=O)c1cccc(NS(=O)(=O)c2ccccc2)c1
-11%	COc1ccc(S(=O)(=O)Cc2ccc(C(=O)NCc3cccs3)o2)cc1
-3%	O=C(C(NS(=O)(=O)c1cccs1)c1ccccc1)N1CCN(c2ccccc2)CC1 (stereo not drawn)
-7%	O=C(NCc1cccc(Br)c1)C1CC(c2cc(C(F)(F)F)cc(C(F)(F)F)c2)=NO1 (stereo not drawn)
4%	Cc1ccc(N(CC(=O)N2CCOCC2)S(C)(=O)=O)cc1
11%	CCOc1ccc(CNC(=O)C2Cc3ccccc3N2C(=O)CC)cc1 (stereo not drawn)
1%	Cc1ccc(CN2C(=O)C(C)Oc3ccccc32)cc1 (stereo not drawn)
0%	CC(=O)NCCc1nc2ccccc2n1CCCCOc1ccccc1
6%	CCOCCCNC(=O)C(NC(=O)CNC(=O)c1ccccc1)c1ccccc1 (stereo not drawn)
-12%	O=C(Cn1cnc2ccccc2c1=O)N1CCc2ccccc2C1
-4%	CCN(CC)S(=O)(=O)c1cc(OC)ccc1N=Nc1ccc(O)c2ncccc12
-9%	Cc1ccc(S(=O)(=O)N2CCC(=O)N(C(COCc3cccc(C(F)(F)F)c3)C(C)C)CC2)cc1 (stereo not drawn)

# Following part
VDR inhibitor	molecule
-15%	CCOC(=O)CC1(C)OCC(C[N+]2(C)CCCCC2)O1 (stereo not drawn)
?	Cc1cc(C)c(C(=O)CSc2nnc(N)s2)cc1C
-22%	O=C(Nc1ccccc1N1CCCC1)c1cc2ccccc2o1
?	CCc1ccc(/C=C2\SC(=S)N(CCCC(=O)Nc3ccccc3C(=O)O)C2=O)cc1
-11%	COC(=O)[C@@]1(Cc2ccc(OC)cc2)[C@H]2c3cc(C(=O)N4CCCC4)n(CCO)c3C[C@H]2CN1C(=O)c1ccccc1
-12%	O=C(NCC(=O)N(c1cccnc1)C(C(=O)NCc1ccco1)c1ccccc1)c1ccco1 (stereo not drawn)
12%	Cc1ccc(Cl)cc1-n1c(SCC(=O)NCc2ccccc2)nc2n[nH]c(C)c2c1=N
2%	O=C(NCc1cccn1Cc1ccccc1)Nc1ccc(Br)cc1F
-7%	O=C1c2oc3ccccc3c(=O)c2C(c2ccc(Br)cc2)N1c1ccccn1 (stereo not drawn)
-24%	Cc1ccc(C(=O)Oc2ccc(Br)cc2C(=S)N2CCOCC2)cc1
-13%	CCOc1cc(CNC(C)C)c(Cl)cc1OCC(=O)NCCc1ccccc1
-24%	COc1ccc(-c2cc(=O)oc3c(C)c(OCC(=O)N[C@@H](Cc4ccc(O)cc4)C(=O)O)ccc23)cc1
-29%	C=CCSC(=C(C#N)C#N)c1cc2c([nH]1)CCCC2
9%	Cc1[nH]nc(Nc2ccc(O)cc2)c1[N+](=O)[O-]
-8%	N#CCOc1ccc(C2=NO[C@@H]3[C@@H]4C[C@@H]([C@H]5C(=O)N(c6ccc7c(c6)OCO7)C(=O)[C@@H]45)[C@H]23)cc1
18%	FC(F)(F)c1ccnc(N2CCN(Cc3cnc(-c4ccccc4)[nH]3)CC2)c1
-2%	COc1cccc(NC(=O)C2CCN(S(=O)(=O)c3c(C)noc3/C=C/c3cccs3)CC2)c1
13%	COCc1cc(C)nc2sc(C(=O)NN)c(-n3cccc3)c12
4%	COc1ccc(OC)c(CNS(=O)(=O)c2cc(-c3cc(C)no3)ccc2OC)c1
-21%	Oc1ccc(Br)cc1/C=N/Nc1ncc(-c2ccccc2)cn1
-11%	CC(=O)N1CCN(c2ccc(S(=O)(=O)N3CCOCC3)cc2[N+](=O)[O-])CC1
-6%	Cc1c(CN2CCC(CO)(Cc3ccccc3)CC2)c2ccccc2n1C
0%	COc1ccc(-n2ncc(Cl)c(Cl)c2=O)cc1
-8%	O=C(O)c1ccccc1C(=O)c1ccc(-c2ccccc2)cc1
10%	COc1ccccc1CNC(=O)Cn1nc(C)n2cccc2c1=O
-1%	Cc1cc2c(=O)n(CC(=O)N3CCN(c4ccccc4)CC3)cnc2s1
-4%	C/C(=N\NC(=O)c1cc(C)nc2ccccc12)c1ccc([N+](=O)[O-])cc1
-1%	O=C(O)CCCCCNc1nc(=S)[nH]c2ccccc12
3%	N#C/C(=C/c1ccc2c(c1)OCO2)C(=O)NCCc1c[nH]c2ccccc12
2%	O=C(NCCc1ccc(Cl)cc1)c1nc(-c2cccc(F)c2)n2c1CCCCC2
7%	COc1ccc(-c2nnc(-c3cc4ccccc4oc3=O)o2)cc1
-11%	O=C(CSc1nc(O)cc(=O)[nH]1)N1c2ccccc2CCc2ccccc21
-9%	COc1cc(C(=O)Nc2nc3c(s2)Cc2c(Br)ccc(OC)c2-3)cc(OC)c1OC
-11%	COc1cccc(-c2coc3cc4oc(=O)c(CC(=O)O)c(C)c4cc23)c1
3%	Cc1onc(-c2ccccc2)c1-c1csc(N/N=C/c2ccccc2)n1
0%	O=C(Nc1nnc(SCC(=O)N2CCCCC2)s1)c1ccc(F)cc1F
-7%	Cn1cc(-c2cc(C(=O)O)on2)cn1
18%	CCOc1ccc(CN(C(=O)c2nc(SC)ncc2Cl)C2CCS(=O)(=O)C2)cc1 (stereo not drawn)
-4%	CCOC(=O)N1CCC(N2CC34C=CC(O3)C(C(=O)Nc3ccc(C)cc3)C4C2=O)CC1 (stereo not drawn)
2%	O=C(c1cccc([N+](=O)[O-])c1)N1CCN(S(=O)(=O)N2CCCCC2)CC1
-7%	CCc1ccc(OCc2nnc(-c3ccccc3Br)o2)cc1
17%	Cc1ccccc1-n1nc(C)c2cc(C(=O)N3CCN(S(=O)(=O)c4ccc(F)cc4)CC3)sc21
?	Cc1cc(C)c2nc(-c3cccnc3)cc(C(=O)NC(C)c3cnn(C)c3C)c2c1 (stereo not drawn)
?	O=C(Nc1ccccc1)c1ccc[nH]1
1%	CC(NC(=O)c1cc2ccccc2o1)c1cccs1 (stereo not drawn)
-24%	NNC(=S)Nc1cc(S(=O)(=O)N2CCOCC2)ccc1N1CCOCC1
-14%	Cc1ccc(C(=O)Nn2c(O)c(C=C3N=c4ccccc4=N3)sc2=S)cc1
-9%	CCc1cc(Cn2nc(-c3ccccc3C)cc2C(=O)O)on1
4%	CCOc1ccc(Nc2nc3c(S(=O)(=O)c4ccc(CC)cc4)nnn3c3ccc(Cl)cc23)cc1
-5%	COc1ccc(-n2c(N)c(C(=O)NCC3CCCO3)c3nc4ccccc4nc32)c(OC)c1 (stereo not drawn)

# Two successive compounds already listed:
VDR inhibitor	molecule
-1%	Cc1cc2c(=O)n(CC(=O)N3CCN(c4ccccc4)CC3)cnc2s1
-4%	C/C(=N\NC(=O)c1cc(C)nc2ccccc12)c1ccc([N+](=O)[O-])cc1

# Continuation.
VDR inhibitor	molecule
27%	Cc1ccccc1-n1ncc2c1CC(C)(C)CC2NC(=O)CCN1CCCCC1=O (stereo not drawn)
4%	Cc1ccc(NC(=O)CCCn2c(=O)c3cccn3c3cccnc32)c(C)c1
1%	COCC(=O)N1CCC[C@@]2(CCN(c3ccccn3)C2)C1
-10%	O=C(COC(=O)C1CCN(C(=O)c2ccc(Cl)cc2)CC1)Nc1ccccc1F
?	COc1ccc(NS(=O)(=O)c2ccc(N3CCCC3)c(NC(=S)Nc3cccc(C)c3C)c2)cc1
7%	CCOC(=O)Cc1csc(NC(=O)C(CC(C)C)NC(=O)C2CCCCC2)n1 (stereo not drawn)
-3%	COc1ccccc1NC(=O)c1cccs1
7%	COc1cc(OC)c(NC(=O)CN(C)S(=O)(=O)c2ccc3[nH]c(=O)oc3c2)cc1Cl
-1%	CCOC(=O)CC1CCCCN1C(=O)c1ccc2nc(CCOC)oc2c1 (stereo not drawn)
-4%	O=C(Nc1ccc(F)cc1)N1CCN(c2ncccn2)CC1
1%	Cc1ccc(-n2c(SCC(=O)N3CCOCC3)nnc2-c2ccncc2)cc1
10%	O=C(CS(=O)(=O)c1cccc2nsnc12)Nc1ccccc1
-4%	Cc1cc(OCC(=O)Nc2ccc3c(c2)OCCO3)ccc1Cl
8%	CC(C)(C)C(=O)NCCN1CCN(C(=O)C(C)(C)C)CC1
-11%	C/C(=N/NC(=O)CNC(=O)CCc1ccccc1)c1ccc(Cl)c(Cl)c1
-12%	CC(C)n1c(NCc2cc(Cl)ccc2O)nc2ccccc21
-4%	O=c1c(C(c2ccccc2)c2c(O)nc3n(c2=O)CCS3)c(O)nc2n1CCS2
-6%	N#Cc1c(-c2ccccc2Cl)noc1/C=C/Nc1ccc(C(=O)O)cc1
-4%	COc1ccc(CNC(=O)CN2C(=O)NC(C)(c3cccc(Br)c3)C2=O)cc1 (stereo not drawn)
6%	Cc1ccc(S(=O)(=O)c2cn(Cc3ccccc3)c3cc(N4CCCCC4)c(F)cc3c2=O)cc1
-6%	CNS(=O)(=O)c1ccc(Cl)nc1
-20%	CCCCN(Cc1ccco1)C(=O)Cn1ncc2c(=O)oc3ccc(C)cc3c21
-23%	CC(C)CNS(=O)(=O)c1ccc(S(=O)(=O)N2CCC3(CC2)OCCO3)cc1

# 5 compounds already listed, sorted by number of heavy atoms, smallest number first.
VDR inhibitor	molecule
-6%	CNS(=O)(=O)c1ccc(Cl)nc1
-3%	COc1ccccc1NC(=O)c1cccs1
-4%	Cc1cc(OCC(=O)Nc2ccc3c(c2)OCCO3)ccc1Cl
-4%	COc1ccc(CNC(=O)CN2C(=O)NC(C)(c3cccc(Br)c3)C2=O)cc1 (stereo not drawn)
-10%	O=C(COC(=O)C1CCN(C(=O)c2ccc(Cl)cc2)CC1)Nc1ccccc1F

# Some of the compounds tested. The share of hits here may be higher or lower than overall.
